From PubChem BioAssay
Calb FLC = C. albicans growth modulation with fluconazole. growth inhibition, % (test concentration not listed). 300,000 tested, 0.57% active. AID 1979. C. albicans CaCi-2 (fluconazole-resistant clinical isolate) + fluconazole, Alamar Blue growth, 48 h;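 active means most replicates above 75%; inconclusive means exactly half above 75%; inactive means most below 75%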;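 further: all wells also contain fluconazole at 8 µg/ml as a sub-toxic cotreatment; 0% = median of DMSO wells and 100% = median of geldanamycin control wells; wells of about 8 µL received 7.5 nL stock; the first replicate is given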
B2AR ag = agonists of human beta-2 adrenergic receptor inducing internalization; P07550; Am2.2-beta2AR cells, FAP receptor internalization, flow cytometry; reference of the scale not given here; response, % (test concentration not listed); 340,000 tested, 0.43% active; AID 504454;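 active means response above a set limit, near 3 SD of response in nonfluorescent compounds, cut at about 42% in these data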;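 further: stock transfer was 100 nL into about 11 µL; a reference agonist was the positive control; negative values mostly stem from fluorescent compounds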
RanGTP-Imp inh = disruptors of Ran-importin-beta complex formation – biochemical, FRET, CFP-Ran, YFP-importin-beta, homogeneous, primary screen; inhibition, % (concentration not given with the values); cell-free CFP-Ran/YFP-importin-beta FRET ratio; 300,000 tested, 1.1% active;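 active means most replicates above 15%; inconclusive means exactly half above 15%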;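 further: 0% = DMSO wells and 100% = Ran loaded with GDP instead of GTP; wells of about 40 µL received 100 nL stock; the first replicate is given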
LANA-H2B inh = blocks KSHV LANA binding to histone H2A/H2B; inhibition, % (concentration not given with the values); 320,000 tested, 0.6% active; cell-free LANA-H2A/H2B peptide, fluorescence polarization; Q9QR71; in the data active means inhibition mostly above about 10%, no sharp cut-off; inactive means mostly below about 6.7%;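 further: stock transfer was 7.5 nL into about 10 µL; 0% = median of vehicle wells and 100% = median of positive control wells; one replicate is shown; the record names a cut of 25% in any replicate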
Target sequence (Q9QR71 whole entry, looked up): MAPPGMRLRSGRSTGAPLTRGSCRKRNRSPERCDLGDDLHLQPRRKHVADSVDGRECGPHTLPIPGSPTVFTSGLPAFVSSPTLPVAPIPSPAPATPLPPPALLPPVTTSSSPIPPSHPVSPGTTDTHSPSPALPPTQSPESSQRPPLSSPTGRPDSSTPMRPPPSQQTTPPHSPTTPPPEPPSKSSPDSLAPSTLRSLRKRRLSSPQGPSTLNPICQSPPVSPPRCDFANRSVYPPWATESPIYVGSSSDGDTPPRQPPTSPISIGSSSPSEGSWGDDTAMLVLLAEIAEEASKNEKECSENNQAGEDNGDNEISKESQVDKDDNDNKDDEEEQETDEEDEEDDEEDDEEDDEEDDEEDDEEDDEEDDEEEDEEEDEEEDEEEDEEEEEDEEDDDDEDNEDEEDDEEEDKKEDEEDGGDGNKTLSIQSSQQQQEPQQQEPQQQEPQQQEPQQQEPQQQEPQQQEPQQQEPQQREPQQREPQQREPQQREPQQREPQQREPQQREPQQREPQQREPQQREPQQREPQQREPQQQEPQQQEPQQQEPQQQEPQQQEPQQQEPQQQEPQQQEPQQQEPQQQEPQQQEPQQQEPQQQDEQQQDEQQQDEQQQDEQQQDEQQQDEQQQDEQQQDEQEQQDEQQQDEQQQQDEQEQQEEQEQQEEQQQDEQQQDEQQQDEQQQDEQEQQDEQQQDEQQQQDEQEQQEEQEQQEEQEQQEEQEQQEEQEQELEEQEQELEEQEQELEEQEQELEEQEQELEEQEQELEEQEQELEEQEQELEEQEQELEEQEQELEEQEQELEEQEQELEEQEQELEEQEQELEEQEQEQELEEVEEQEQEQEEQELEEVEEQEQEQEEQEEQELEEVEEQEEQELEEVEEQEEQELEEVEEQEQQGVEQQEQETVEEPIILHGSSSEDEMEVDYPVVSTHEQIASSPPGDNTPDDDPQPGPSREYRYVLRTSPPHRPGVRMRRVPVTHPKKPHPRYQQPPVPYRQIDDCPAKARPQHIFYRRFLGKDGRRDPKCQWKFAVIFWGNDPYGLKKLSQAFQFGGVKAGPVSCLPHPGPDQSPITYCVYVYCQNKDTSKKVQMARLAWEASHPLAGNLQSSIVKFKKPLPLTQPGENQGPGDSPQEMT
HNF4A DNA FP = change in binding of human HNF4 alpha to DNA; 360,000 tested, 0.3% active; activity change, % at 10 µM; HNF4a-FITC DNA binding, fluorescence polarization, 1 h; P41235; AID 1224865; in the data active means activity change above about 30%, passing the limit was not always enough;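 further: controls were the assay level and a saturating level of protein; the project sought stronger binding though the title names inhibitors; some compounds called inactive have numbers as strong as hits; positive values seem to mean higher polarization but the record does not say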
ALR inh = blocks human ALR sulfhydryl oxidase activity. P55789. purified ALR, DTT oxidation, H2O2 HRP-luminol luminescence. inhibition, % (test concentration not listed). 290,000 tested, 3.8% active;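 active means mean and each replicate at 75% or more; inconclusive means only one of the two met; inactive means neither met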;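 further: stock transfer was 7.5 nL into about 7.5 µL; 0% = neutral wells and 100% = wells with inactivated enzyme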
Vif A3G = HIV-1 Vif–A3G interaction blockers – biochemical, TR-FRET, GST-Vif 1-94, biotin-A3G peptide, dose response retest, primary screen (AID 1117319); TR-FRET GST-Vif / biotin-A3G peptide binding; higher % means a stronger effect; test concentration not given here; strong numbers were not always called active; inhibition, %; hits with a dose series show IC50 in µM; 260,000 tested, 0.57% active;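 active means above the screen mean plus three standard deviations and confirmed in dose response; inconclusive means results disagree or hit not tested in dose response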;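 further: Vif residues 1-94 fused to GST binding biotinylated APOBEC3G peptide 110-148; 0% = full assay without inhibitor and 100% = GST in place of GST-Vif; retest series ran down from 100 µM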
* = called active by the depositor; ? = inconclusive; · = not tested or not shown.

SMILES	Calb FLC	B2AR ag	RanGTP-Imp inh	LANA-H2B inh	HNF4A DNA FP	ALR inh	Vif A3G
COc1ccc(-c2cc3c(=O)n(CC(=O)NCc4cccnc4)ncn3n2)cc1	0	-10	-3.9	-1.4	1.1	-4	·
CCOc1nc(C)ccc1-c1noc(-c2ccccc2OC)n1	-3	0	3.0	-3.3	5.3	3	-7%
Cc1ccc(S(=O)(=O)N(CC(=O)N/N=C/c2cccc(C)c2)c2cccc3cccnc23)cc1	2	2	3.7	3.6	-3.0	-6	14%
Cc1ccc(NC(=O)CSc2nc(C)c(C)c(C)n2)cc1S(=O)(=O)N1CCOCC1	·	-7	·	3.1	0.3	-9	-7%
O=C(NCc1cccnc1)c1ccc(NC(=O)c2ccc([N+](=O)[O-])cc2)cc1	-24	11	-0.8	-4.3	-1.1	·	0%
COC(=O)C1=C(C(=O)OC)[C@@H]2N(C)c3ccc(OC)cc3[C@@]23C[C@@H](C(=O)OC)N(C(=O)c2cc(C)oc2C)C3=N1	-9	·	-4.7	2.1	·	9	·
Nc1c2c(nc3ccc(Br)cc13)N(c1ccccc1)CC2	·	-2	·	1.0	4.6	36	14%
CC(=O)c1ccc2c(ccc3ccccc32)c1	3	7	4.0	2.3	1.7	-13	-26%
O=C(CSc1ccccc1F)NC(=O)c1ccccc1Br	·	-3	·	0.8	3.8	2	8%
O=C(NCCNC(=O)c1cc(OCC(F)(F)F)ccc1OCC(F)(F)F)Nc1ccccc1	-24	-2	-1.3	1.5	-4.4	·	9%
O=C(NCC1CCCO1)c1ccc(N2CCCCC2)nc1 (centres undefined)	3	-10	-1.3	4.4	2.9	6	-9%
CC1CCCC(C)N1C(=O)CSc1nnnn1Cc1ccccc1 (centres undefined)	-14	-7	4.6	0.8	3.5	-2	24%
COc1ccc(N(CC(=O)N2CCCCCC2)S(=O)(=O)c2ccccc2[N+](=O)[O-])c(OC)c1	-3	1	0.9	1.1	-0.2	-7	·
CCOc1ccc(/C(O)=C2/C(=O)C(=O)N(CC3CCCO3)C2c2cccs2)cc1 (centres undefined)	-2	-8	5.2	1.8	3.8	-14	-13%
Fc1cc(Br)ccc1NC(=S)NCCc1ccccc1	-32	-2	-5.1	-2.0	3.1	30	2%
CCOC(=O)C(NC(=O)CC)(Nc1ccccc1)C(F)(F)F (centres undefined)	-3	4	4.0	-2.2	-0.8	-5	0%
Cc1ccccc1Cn1c(C)nc2ccccc21	12	-5	1.8	4.9	0.6	-4	4%
Cc1occc1-c1nnc(SCC(=O)N2CCOCC2)n1Cc1ccco1	0	-4	0.7	-1.2	-0.9	1	21%
Cn1cc(/C=C2\SC(=S)N(NC(=O)c3ccccc3)C2=O)c2ccccc21	-3	2	-44	-488	14	-3	6%
COC(=O)CSc1ncccc1-c1nc2ccccc2[nH]1	-8	17	-0.2	-1.8	0.6	-5	-6%
Nc1nc(Nc2ccc(Cl)cc2Cl)nc(C(F)(F)F)n1	·	-1	·	-4.8	2.0	·	0%
O=C(/C=C/c1ccccc1[N+](=O)[O-])OCC(=O)N1CCCC1	·	3	·	0.9	-0.4	-2	3%
CCOC(=O)C1CCCN(C(=O)c2ccc3c(c2)N(Cc2ccccc2)C(=O)c2ccccc2S3=O)C1 (centres undefined)	14	7	0.7	-2.7	-0.7	-7	·
COC(=O)c1oc(-c2ccc(Cl)cc2)nc1C	-17	12	0.2	3.3	-0.2	-1	·
COCCN(C(=O)COC(=O)c1nc(Cl)ccc1Cl)c1c(N)n(Cc2ccccc2)c(=O)[nH]c1=O	-4	-18	-1.5	-3.2	-0.7	6	7%
Cc1sc2ncnc(SCC(=O)Nc3cccc(S(N)(=O)=O)c3)c2c1C	·	-3	·	5.5	3.1	-3	4%
O=C(c1n[nH]c2ccccc12)N1CCN(S(=O)(=O)c2ccc(Cl)cc2)CC1	·	-31	·	-0.9	-1.9	0	-1%
COc1cccc(-c2cc(C(=O)N/N=C/c3cccc(OC)c3OC)c3ccccc3n2)c1	38	-1	?	-5.3	1.3	-16	·
Cc1ncc([N+](=O)[O-])n1CCOC(=O)c1ccc(Br)cc1	-8	5	0.4	-2.2	0.3	-3	-10%
c1ccc(OCc2cc(-c3ccccc3)no2)cc1	-40	-5	1.4	-1.9	1.8	-5	6%
CC1CCCN(C(=O)CCNC(=O)Cn2cnc3ccccc3c2=O)C1 (centres undefined)	-24	2	-0.3	4.2	0.9	-1	·
Nc1ccc(C(=O)N/N=C/c2cccc(Oc3ccccc3)c2)cc1	-40	-4	0.6	-8.4	-2.0	-12	·
Oc1c(Br)cc(Br)cc1C=NCc1ccc(F)cc1	-29	-3	-11	0.0	-2.0	-8	-1%
CC1CCCN(S(=O)(=O)c2cc3c4c(c2)C(C)C(=O)N4CCC3)C1 (centres undefined)	15	-3	-3.3	-1.1	0.0	0	4%
O=C(CSc1nc(C2CC2)nc2ccccc12)NCc1ccc2c(c1)OCO2	-11	·	-2.6	-2.3	·	4	27%
Nc1nc(SCC(=O)Nc2ccc3c(c2)CCC3)n[nH]1	-10	3	0.9	-6.3	-2.5	55	23%
COc1ccc2nc(C)cc(N3CC(C)OC(C)C3)c2c1 (centres undefined)	6	-2	0.7	-0.8	-1.5	6	-4%
CCOC(=O)c1sc(N)c(C#N)c1COC(=O)C1=COCCO1	·	3	·	5.5	23	-1	-12%
CCOC(=O)Nc1ccc2c(CN3C(=O)NC(CC)(CC)C3=O)cc(=O)oc2c1	-4	·	0.7	-8.0	·	-4	17%
CC1Nc2ccccc2C(=O)N1NC(=O)c1ccc(Br)cc1 (centres undefined)	2	2	2.7	3.4	-1.5	17	1%

Next part; it opens with the 2 that closed the last part.
SMILES	Calb FLC	B2AR ag	RanGTP-Imp inh	LANA-H2B inh	HNF4A DNA FP	ALR inh	Vif A3G
CCOC(=O)Nc1ccc2c(CN3C(=O)NC(CC)(CC)C3=O)cc(=O)oc2c1	-4	·	0.7	-8.0	·	-4	17%
CC1Nc2ccccc2C(=O)N1NC(=O)c1ccc(Br)cc1 (centres undefined)	2	2	2.7	3.4	-1.5	17	1%
Cc1cc(N)n(-c2ncnc3scc(-c4ccccc4)c23)n1	-8	2	1.7	-2.0	3.8	·	-2%
CC(C)CC(=O)Nc1ccc2oc(-c3ccncc3)nc2c1	3	-5	3.9	-0.3	0.4	1	-4%
CC(C)CNC(=O)C1CCCN1S(=O)(=O)c1ccc(Cl)cc1 (centres undefined)	-2	2	3.2	1.8	-0.2	-1	24%
O=c1[nH]c(CSc2nc3ccccc3s2)nc2ccccc12	4	0	1.9	-5.2	1.9	-129	-18%
N/C(=N\OC(=O)CCCCCN1C(=O)c2ccccc2C1=O)c1ccccn1	-4	-5	?	-2.2	3.5	·	·
CC(=O)NCc1ccc2[nH]c(C)cc2c1	-3	-2	5.6	0.5	-1.4	-62	19%
COc1cc(C(=O)O)ccc1OCc1c(C)noc1C	-7	4	2.3	3.0	1.8	-2	0%
COc1ccc(Cn2c(=O)[nH]c3cc(C(=O)N4CCN(c5ccccc5)CC4)ccc3c2=O)cc1	-6	-3	-1.0	3.6	-1.1	-1	·
c1ccc2c(c1)c1cccc3ccc4cccc2c4c31	·	-1	·	2.1	-0.7	1	·
NC(=O)C1CCN(c2ccc3c(c2)S(=O)(=O)c2ccccc2C3=O)CC1	-3	-2	-62	-5.1	47*	17	·
O=C(NC1CCN(C(=O)NCc2ccccc2)CC1)c1ccccc1	12	-4	-0.3	1.0	3.2	5	·
O=C(O)CCC(=O)Nc1ccc(-c2csc(Nc3cccc4ccccc34)n2)cc1	·	-1	·	-4.0	3.8	?	·
CCn1c(SCC(=O)NC2CCCCC2)nnc1-c1ccccc1F	-6	4	-0.1	-2.2	-2.2	0	-2%
Cn1c(COc2ccccc2)nnc1SCc1nc2ccccc2[nH]1	0	-3	2.1	0.1	-2.1	-14	1%
CC1(C)CN(c2ccsc2C(=O)O)C1=O	-6	-1	-1.2	1.5	-2.2	-4	-4%
Cc1cc(S(=O)(=O)N2CCN(c3c(C)cccc3C)CC2)ccc1F	1	2	22*	7.5	0.6	-6	5%
CCN(CC(=O)NCc1cccs1)C(=O)c1cccc(S(=O)(=O)NC)c1	3	3	-4.7	1.5	0.4	·	·
Cc1cc(-c2n[nH]c(=S)n2-c2ccc(C)c(C)c2)no1	0	7	0.4	2.5	1.0	96*	-6%
CCn1c(=O)c2c(nc(SCC(=O)N3CCCC(C)C3)n2C)n(C)c1=O (centres undefined)	0	0	-4.0	3.3	0.2	-2	·
CC1CN(C(=S)Nc2cccc(F)c2)CC(C)O1 (centres undefined)	6	15	-5.9	-0.1	-0.6	-7	·

Arranged by formula weight (rising): some entries from above
SMILES	Calb FLC	B2AR ag	RanGTP-Imp inh	LANA-H2B inh	HNF4A DNA FP	ALR inh	Vif A3G
CC(=O)NCc1ccc2[nH]c(C)cc2c1	-3	-2	5.6	0.5	-1.4	-62	19%
CC1(C)CN(c2ccsc2C(=O)O)C1=O	-6	-1	-1.2	1.5	-2.2	-4	-4%
c1ccc2c(c1)c1cccc3ccc4cccc2c4c31	·	-1	·	2.1	-0.7	1	·
CC1CN(C(=S)Nc2cccc(F)c2)CC(C)O1 (centres undefined)	6	15	-5.9	-0.1	-0.6	-7	·
COc1cc(C(=O)O)ccc1OCc1c(C)noc1C	-7	4	2.3	3.0	1.8	-2	0%
Cc1cc(-c2n[nH]c(=S)n2-c2ccc(C)c(C)c2)no1	0	7	0.4	2.5	1.0	96*	-6%
Cc1cc(N)n(-c2ncnc3scc(-c4ccccc4)c23)n1	-8	2	1.7	-2.0	3.8	·	-2%
O=c1[nH]c(CSc2nc3ccccc3s2)nc2ccccc12	4	0	1.9	-5.2	1.9	-129	-18%
O=C(NC1CCN(C(=O)NCc2ccccc2)CC1)c1ccccc1	12	-4	-0.3	1.0	3.2	5	·
CCOC(=O)c1sc(N)c(C#N)c1COC(=O)C1=COCCO1	·	3	·	5.5	23	-1	-12%
Cn1c(COc2ccccc2)nnc1SCc1nc2ccccc2[nH]1	0	-3	2.1	0.1	-2.1	-14	1%
CC1Nc2ccccc2C(=O)N1NC(=O)c1ccc(Br)cc1 (centres undefined)	2	2	2.7	3.4	-1.5	17	1%
Cc1cc(S(=O)(=O)N2CCN(c3c(C)cccc3C)CC2)ccc1F	1	2	22*	7.5	0.6	-6	5%
NC(=O)C1CCN(c2ccc3c(c2)S(=O)(=O)c2ccccc2C3=O)CC1	-3	-2	-62	-5.1	47*	17	·
CCn1c(=O)c2c(nc(SCC(=O)N3CCCC(C)C3)n2C)n(C)c1=O (centres undefined)	0	0	-4.0	3.3	0.2	-2	·
N/C(=N\OC(=O)CCCCCN1C(=O)c2ccccc2C1=O)c1ccccn1	-4	-5	?	-2.2	3.5	·	·
CCN(CC(=O)NCc1cccs1)C(=O)c1cccc(S(=O)(=O)NC)c1	3	3	-4.7	1.5	0.4	·	·
CCOC(=O)Nc1ccc2c(CN3C(=O)NC(CC)(CC)C3=O)cc(=O)oc2c1	-4	·	0.7	-8.0	·	-4	17%
O=C(O)CCC(=O)Nc1ccc(-c2csc(Nc3cccc4ccccc34)n2)cc1	·	-1	·	-4.0	3.8	?	·
COc1ccc(Cn2c(=O)[nH]c3cc(C(=O)N4CCN(c5ccccc5)CC4)ccc3c2=O)cc1	-6	-3	-1.0	3.6	-1.1	-1	·
